Cruzain Triton – qHTS Assay for Promiscuous and Specific Inhibitors of Cruzain (with detergent); Cruzipain (Trypanosoma cruzi), P25779; purified cruzain, Z-FR-AMC fluorescence, 0.01% Triton; Potency, µM, for the others: max response, negative = inhibition, usual class: inhibitors; 0.43% of 200,000 active;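 also: plate controls were neutral wells for no effect and buffer without enzyme for full effect; nearly all actives have a fitted effect of over 40% in size; top concentration of the series not given in the record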
Target sequence (P25779 123-467 limits assumed): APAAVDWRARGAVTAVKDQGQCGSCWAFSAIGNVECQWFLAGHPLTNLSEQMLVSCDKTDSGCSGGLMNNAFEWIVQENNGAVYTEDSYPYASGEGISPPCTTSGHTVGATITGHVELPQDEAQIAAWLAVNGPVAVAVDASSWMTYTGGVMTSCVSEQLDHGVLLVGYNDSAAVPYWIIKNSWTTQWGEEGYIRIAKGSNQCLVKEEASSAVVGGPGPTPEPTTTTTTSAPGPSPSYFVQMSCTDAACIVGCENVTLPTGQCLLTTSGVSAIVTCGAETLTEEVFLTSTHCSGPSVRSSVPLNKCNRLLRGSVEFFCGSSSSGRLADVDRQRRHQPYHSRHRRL
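Purified cruzain (1.5 nM final) was preincubated with compounds for 15 min at room temperature in 100 mM sodium acetate pH 5.5, 5 mM DTT, 0.01% Triton X-100. Reaction started with 2 uM Z-FR-AMC; AMC fluorescence change over 60 s gave activity.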
LASV entry inh – qHTS for Inhibitors of binding or entry into cells for Lassa Virus; Potency, µM (titrated, usually from 37.9 µM), for the others: top-dose activity change, negative = inhibition, most hits filed as inhibitors; Lassa virus pseudotype entry inhibition, cell reporter; control for the full effect not named in the record; 1.2% of 300,000 active; AID 540256, 2011; active means well fitted inhibition curve with a large enough effect; inconclusive means small, poorly fitted or top-dose-only effect, or effect the other way; inactive means flat fitted curve, though single readings scatter; tested in HEK293 cells; also: % is scaled to controls: 0 for no effect and ±100 for the full control effect; nearly all actives have a fitted effect of over 50% in size; luciferase read-out
NS1 function inh – qHTS Assay for Inhibitors of Influenza NS1 Protein Function. S. cerevisiae slowed by influenza A NS1, growth recovery by OD600. Potency, µM (series often up to 46.1 µM), for the others: top-dose activity, positive = more growth. 0.4% of 270,000 active. AID 2326, 2010; active means well fitted rising curve with a large enough effect; inconclusive means small, poorly fitted or top-dose-only effect; inactive means no such curve, though single readings can be large or run the other way; also: nearly all actives have a fitted effect of over 50% in size
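S. cerevisiae expressing influenza A NS1, grown in glucose, washed, then diluted 1:100 into pH 6.0 -URA galactose medium with 23 nl compound. Growth recovery read as OD600; NS1-free strain serves as control.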
Marburg entry inh – qHTS for inhibitors of binding or entry into cells for Marburg Virus | Marburg virus pseudotyped entry inhibition, cell reporter; control for the full effect not named in the record; about a third of the inactives were read at about 46 µM | Potency, µM (series often up to 37.8 µM), for inactives: top-dose activity change, negative = inhibition, hits mostly inhibitors | 1.8% of 300,000 active | AID 540276, 2011; active = well fitted inhibition curve with a large enough effect; inconclusive = small, poorly fitted or top-dose-only effect, or effect the other way; inactive = flat fitted curve, though single readings scatter; tested in HEK293 cells; about a fifth of its hits are not listed in these tables; also: % is scaled to controls: 0 for no effect and ±100 for the full control effect; luciferase read-out
Cruzain inh noDet – qHTS Assay for Promiscuous and Specific Inhibitors of Cruzain (without detergent); Cruzipain (Trypanosoma cruzi), P25779; purified cruzain, Z-FR-AMC fluorescence, no detergent; Potency, µM, without a hit: max response, negative = inhibition, hits mostly inhibitors; 2.3% of 200,000 active;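 also: plate controls were enzyme without inhibitor for no effect and buffer without enzyme for full effect; nearly all actives have a fitted effect of over 40% in size; top concentration of the series not given in the record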
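Detergent-free condition (0.00005% Triton X-100) in acetate buffer pH 5.5 with DTT. 1.5 nM enzyme and compound were pre-mixed 15 min, then 2 uM Z-FR-AMC substrate added; reaction progress from fluorescence change between first and third reads (60 s).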
RE007 growth inh – qHTS Assay for Inhibitors of the HIV-1 protein Vpr; Potency, µM (doses to about 92.2 µM), inactives show top-dose activity change, negative = less growth; S. pombe RE007 Vpr strain, BacTiter-Glo ATP luminescence, 24 h; control for the full effect not named in the record; 0.21% of 360,000 active; AID 651644, 2012; active = well fitted falling curve with a large enough effect; inconclusive = small, poorly fitted or top-dose-only effect; inactive = no such curve, though single readings can be large or run the other way;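 also: % is scaled to controls: 0 for no effect and ±100 for the full control effect; nearly all actives have a fitted effect of over 50% in size; the assay follows cell death caused by Vpr and the record does not say whether a fall means rescue or toxicity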
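Fission yeast strain RE007, carrying one chromosomally integrated HIV-1 vpr copy, was seeded at OD 0.01 in PMG+AL medium with 23 nL pinned compound. After 24 h at 30 °C and 99% humidity, viability was read by BacTiter-Glo luminescence.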
2A StopGo – High Throughput Screening for Foot and Mouth Disease Virus Antivirals. human cells with a luciferase reporter of 2A StopGo recoding; control for the full effect not named in the record. Potency, µM (highest dose often 57.9 µM), for the others: at the highest dose signal change, negative = less light. 1.2% of 410,000 active; active = well fitted falling curve with a large enough effect; inconclusive = small, poorly fitted or top-dose-only effect; inactive = no such curve, though single readings can be large or run the other way; tested in HEK293T cells; also: % is scaled to controls: 0 for no effect and ±100 for the full control effect; nearly all actives have a fitted effect of over 45% in size; luciferase light after 4 h
SARS PLpro yeast – qHTS of Yeast-based Assay for SARS-CoV PLP; S. cerevisiae expressing SARS-CoV PLpro, growth rescue; control for the full effect not named in the record; Potency, µM (series often up to 32.9 µM), without a hit: top-dose activity, positive = growth rescue; 0.19% of 330,000 active; AID 485353, 2010; active means well fitted rising curve with a large enough effect; inconclusive means small, poorly fitted or top-dose-only effect; inactive means no such curve, though single readings can be large or run the other way; also: 0% is about no effect; nearly all actives have a fitted effect of over 55% in size; growth read by luminescence after 48 h
* hit, by the source's call; ? = inconclusive; / = no result given; & = joins results of further samples; [ ] = remark or other dose. Unless noted, calls follow the shape of the dose curve; as a rule, active = well fitted curve in the direction sought with a large enough effect; inconclusive = small, poorly fitted or top-dose-only effect, or another doubt; inactive = no such curve, though single readings can be large; an effect the other way counts as inactive or inconclusive. Potency is read from the fitted curve at half-maximal effect.

SMILES	Cruzain Triton	LASV entry inh	NS1 function inh	Marburg entry inh	Cruzain inh noDet	RE007 growth inh	2A StopGo	SARS PLpro yeast
CC(C)c1cccc(C(C)C)c1NC(=O)COC(=O)c1ccc2c(c1)S(=O)(=O)c1ccccc1C2=O	-0.9%	2%	7%	9%	?	5%	-9%	3%
Cn1c(CNS(=O)(=O)c2ccc(Br)cc2)n[nH]c1=S	5.9%	1%	6%	16%	2%	-5%	34%[activator]	-2%
CCN(C(=O)COC(=O)c1ccccc1NCCO)c1cccc2ccccc12	/	?	/	-16%[46.1 µM]	/	-5%	?	/
CCOc1ccc(OCC)c(NC(=O)CSc2nnnn2CC)c1	0.0%	-9%	-1%	?	5%	20%	7%	-9%
CCOCCCNC(=S)N(Cc1ccccc1)Cc1nc2ccccc2c(=O)[nH]1	-12%	-1%	3%	5%	18%	3%	5%	10%
O=C(c1ccccc1)N1CCN(C(=O)c2cc3nc(-c4ccccc4)cc(C(F)(F)F)n3n2)CC1	/	11µM*	3%	?	/	9%	-10%	0%
O=C(CCC1N=C2c3ccccc3N=C(SCC(=O)Nc3ccccc3F)N2C1=O)NCc1ccccc1 (stereo not drawn)	-6.1%	?	/	-21%[46.1 µM]	5%	/	4%	/
CCC(c1nnc(SCC(=O)NCCc2ccc(Cl)cc2Cl)o1)N(C)C (stereo not drawn)	0.1%	-7%	-5%	?	3%	-15%	1%	5%
Cc1ccccc1N1C(=O)C2ON(c3ccccc3)C(c3cccnc3)C2C1=O (stereo not drawn)	0.6%	6%	-18%	-4%	0%	-14%	-5%	-8%
CC(c1ccco1)N(C(=O)c1cc(Cl)cc(Cl)c1)c1ccccn1 (stereo not drawn)	/	-29%	-20%	?	/	-5%	15%	-2%
CCOC(=O)CC(=O)Nc1nnc(C(C)C)s1	2.5%	15%	4%	9%	12%	11%	15%	11%
COc1cc(OC)cc(-c2cc3nc(C)c(CCC(=O)Nc4ccc(C(C)=O)cc4)c(C)n3n2)c1	0.0%	?	/	?	?	/	?	/
N#CCSc1ccccc1NC(=O)COC(=O)CCN1C(=O)C2CC=CCC2C1=O (stereo not drawn)	/	9%	/	21%	/	18%	-22%	-1%
COc1ccc(C(=O)C(OC(=O)c2ccccc2)c2ccccc2)cc1 (stereo not drawn)	-0.3%	?	10%	?	-4%	0%	79%[activator]	-12%
Brc1cc2c(cc1/C=N/Nc1nc3ccccc3s1)OCO2	-5.9%	-7%	8%	9%	20µM*	5%	38%[activator]	-1%
COc1ccc(NC(=O)CSc2nnc(N)s2)cc1	-0.2%&-3.4%	9%	2%	?	-3%&-9%	-2%	-1%&17%	2%
CCCC1=Nc2cc(C(=O)N3CCCC3)ccc2Sc2ccc(C)cc21	/	/	-39%	/	/	4%	-7%	19%
CCn1c(CN2CCOCC2)nnc1SCC(=O)Nc1ccc(C)cc1	/	27%	0%	21%	/	-2%	-17%	-5%
CC(Oc1ccc(C(=O)c2ccccc2)cc1)C(=O)N1CCOCC1 (stereo not drawn)	/	-1%	/	?	/	13%	14%	1%
Cc1onc(-c2ccccc2)c1C(=O)n1nnc2ccccc21	2.4%	0%	-89%	5%	3%	14%	?	9%
CCOC(=O)c1c(NC(=O)CSc2nc(-c3ccccc3)cc(C(F)(F)F)n2)sc(C)c1C	-4.2%	?	/	?	-3%	/	3%	/
CC(OC(=O)c1cc(=O)[nH]c2ccccc12)C(=O)NC1CCCC1 (stereo not drawn)	/	-6%	/	11%	/	8%	-20%	0%
O=C1COc2ccc(S(=O)(=O)N3CCCCC3)cc2N1	/	/	0%	/	/	3%	0%	3%
C=C1CCC2C(C)(C)[C@H](O)CC[C@@]2(C)[C@@H]1COc1cc(=O)oc2ccccc12 (stereo partly drawn)	-4.1%	?	-1%	?	23%	9%	?	-6%
CCN1/C(=C/c2ccc3ccc(C)cc3[n+]2CC)Sc2ccccc21	-6.1%	?	-40%	5µM*	5%	?	?	-98%

By substructure: the compounds so far containing an aryl methoxy group (3)
SMILES	Cruzain Triton	LASV entry inh	NS1 function inh	Marburg entry inh	Cruzain inh noDet	RE007 growth inh	2A StopGo	SARS PLpro yeast
COc1cc(OC)cc(-c2cc3nc(C)c(CCC(=O)Nc4ccc(C(C)=O)cc4)c(C)n3n2)c1	0.0%	?	/	?	?	/	?	/
COc1ccc(C(=O)C(OC(=O)c2ccccc2)c2ccccc2)cc1 (stereo not drawn)	-0.3%	?	10%	?	-4%	0%	79%[activator]	-12%
COc1ccc(NC(=O)CSc2nnc(N)s2)cc1	-0.2%&-3.4%	9%	2%	?	-3%&-9%	-2%	-1%&17%	2%

Later entries.
SMILES	Cruzain Triton	LASV entry inh	NS1 function inh	Marburg entry inh	Cruzain inh noDet	RE007 growth inh	2A StopGo	SARS PLpro yeast
O=C(O)COc1ccccc1/C=N/NC(=O)CSc1nc2ccccc2n1Cc1ccccc1Cl	/	-4%	15%	0%	/	5%	-1%	1%
CCCOC(=O)c1ccc(NC(=O)CN(C)Cc2cccs2)cc1	/	0%[46.1 µM]	-28%	16%[46.1 µM]	/	?	0%	-1%
CCCc1cc(=O)oc2c(C)c(OC(C)C(=O)NCC(O)c3ccccc3)ccc12 (stereo not drawn)	/	/	-3%	/	/	-6%	-15%	3%
COc1cccc(C(CNC(=O)C2CCN(C(=O)Nc3ccccc3)CC2)N(C)C)c1 (stereo not drawn)	/	3%	/	?	/	3%	12%	?
CC(=O)Nc1ccc(NC(=O)CSc2nc(=O)n(Cc3cccnc3)c3c2CCC3)cc1	/	18%	/	-34%	/	8%	-8%	/
Cc1cc(F)ccc1S(=O)(=O)N1CCCOC1CNC(=O)C(=O)NC1CCCC1 (stereo not drawn)	/	-14%	-7%	-19%	/	0%	10%	-1%
O=C(CN1C(=O)C2CC=CCC2C1=O)Nc1ccccc1N1CCCC1 (stereo not drawn)	/	0%	/	11%	/	-19%	-18%	-6%
CCOc1ccc(N2C(=O)CSC23CCCCC3)cc1	0.5%	0%	-4%	-1%	-1%	18%	-21%	1%
CCC(=O)NCCNc1ccc([N+](=O)[O-])cn1	-6.6%	?	29%	5%	0%	/	/	12%
CC(C)(C)S(=O)c1cccs1 (stereo not drawn)	4.5%	-6%	4%	11%	-2%	-4%	/	5%
COCCCNC(=O)CSC1=Nc2ccccc2C2=NC(CCC(=O)NCc3ccccc3OC)C(=O)N12 (stereo not drawn)	-1.4%	9%[46.1 µM]	/	/	-5%	/	-14%	/
Cc1ccc(CNC(=O)Nc2ccc3c(c2)N(C)C(=O)CS3)cc1	/	-5%	/	-1%[46.1 µM]	/	4%	-9%	-1%
Cc1c(-c2ccccc2)cn2c1-c1ccc(C)n1CC2	-4.5%	-3%	15%	17%[46.1 µM]	-3%	-16%	16%	-10%
CC1(C)CC(=O)c2cnc(N3CCN(c4ccccc4)CC3)nc2C1	-4.1%	-5%	5%	3%	10%	7%	?	-1%
CCN1CNC(=S)N(c2ccccc2OC)C1	-1.7%	?	10%	?	2%	-10%	2%	?
N#CC1=C(N)N(c2ccc(Oc3ccccc3)cc2)C(=O)C1	-1.7%	7%	?	8%	?	-12%	-18%	1%
O=C(CSc1nnc(Cc2cccs2)n1C1CCCCC1)N1CCCc2ccccc21	-6.1%	?	-13%	?	-1%	5%	-10%	-13%
COC(=O)c1cc(S(=O)(=O)N2CCN(c3ccccc3F)CC2)c[nH]1	/	/	-13%	/	/	-3%	?	-1%
O=C(N/C(=C/c1ccc(Cl)cc1)C(=O)N1CCCC1)c1ccccc1	/	-9%	-8%	-3%[46.1 µM]	/	2%	52%[activator]	9%
COc1ccc(C(=O)N2CC(=O)Nc3ccc(C)cc3C2c2ccccc2)cc1 (stereo not drawn)	/	-6%[46.1 µM]	2%	0%[46.1 µM]	/	-16%	3%	2%
Cc1c(/C(O)=C2/C(=O)C(=O)N(CCN3CCOCC3)C2c2ccccn2)cnn1-c1ccccc1 (stereo not drawn)	/	?	2%	?	/	-4%	1.4µM*	-2%
CCOc1ccc(C(=O)Cn2cnnc2C#N)cc1	/	-5%	?	-26%[46.1 µM]	/	-3%	-5%	1%
COc1cc(/C=C2\C(C)=C(C#N)c3nc(N)c(C#N)c(C)c32)ccc1OCC(=O)O	/	/	10%	/	/	3%	8%	0%
COc1ccc(-c2nnc(NC(=O)C(C)C)o2)cc1	-3.3%	/	3%	/	-9%	-13%	22%	7%
c1ccc(C2Nc3cccc4cccc(c34)N2)cc1	/	/	-18%	/	/	12%	4%	-1%
(continued)
SMILES	Cruzain Triton	LASV entry inh	NS1 function inh	Marburg entry inh	Cruzain inh noDet	RE007 growth inh	2A StopGo	SARS PLpro yeast
Cc1ccc(CNC(=O)Cn2cnc(S(=O)(=O)N3CCCCC3)c2)o1	/	0%[46.1 µM]	-12%	?	/	-2%	-16%	-2%
O=C(N1CCCC1)C12CC3CC(C1)CC(C(=O)N1CCCC1)(C3)C2	/	-5%	12%	16%[46.1 µM]	/	-5%	-2%	1%
S=c1[nH]nc(CSc2nc3ccccc3s2)n1Cc1ccccc1	-1.3%	-7%	6%	?	-22%	-4%	-6%	-1%
O=C(CCNC(=O)c1ccccc1Cl)NCC1CCCO1 (stereo not drawn)	/	17%	/	-1%[46.1 µM]	/	-1%	3%	4%
COc1ccc(C2c3ccsc3CCN2C(C)=O)cc1 (stereo not drawn)	/	/	-3%	/	/	5%	0%	0%
COc1ccc(C(=O)Cc2nnc(C)s2)c(OC)c1	-2.3%	-2%	15%	?	-6%	8%	32%[activator]	23%
O=C(CN1C(=O)C2C3CCC(C3)C2C1=O)OCC(=O)c1ccccc1 (stereo not drawn)	/	/	14%	/	/	-7%	-17%	-5%
Nc1c(C(=O)Nc2ccc3c(c2)OCCO3)nnn1Cc1ccc(F)cc1	/	-21%	/	16%	/	-27%	49%[activator]	0%
O=C(CS(=O)(=O)c1cn(CC(=O)N2CCCC2)c2ccccc12)Nc1ccccc1	/	-14%	17%	-17%	/	-11%	0%	/

Screening results: PubChem BioAssay, National Center for Advancing Translational Sciences (NCATS)
